High-throughput results as filed in PubChem.
VDR inh – inhibitors of human vitamin D receptor. AID 504847. actives 0.93% (n = 400,000). VDR-SRC2-3 peptide fluorescence polarization, 2 h. Potency, µM, for inactives: max response, negative = inhibition, actives largely listed as inhibitors; active = well fitted inhibition curve with a large enough effect; inconclusive = small, poorly fitted or top-dose-only effect, or another doubt; inactive = no such curve, though single readings can be large or run the other way; note: series mostly up to about 120 µM
Target sequence (P11473 whole entry, looked up): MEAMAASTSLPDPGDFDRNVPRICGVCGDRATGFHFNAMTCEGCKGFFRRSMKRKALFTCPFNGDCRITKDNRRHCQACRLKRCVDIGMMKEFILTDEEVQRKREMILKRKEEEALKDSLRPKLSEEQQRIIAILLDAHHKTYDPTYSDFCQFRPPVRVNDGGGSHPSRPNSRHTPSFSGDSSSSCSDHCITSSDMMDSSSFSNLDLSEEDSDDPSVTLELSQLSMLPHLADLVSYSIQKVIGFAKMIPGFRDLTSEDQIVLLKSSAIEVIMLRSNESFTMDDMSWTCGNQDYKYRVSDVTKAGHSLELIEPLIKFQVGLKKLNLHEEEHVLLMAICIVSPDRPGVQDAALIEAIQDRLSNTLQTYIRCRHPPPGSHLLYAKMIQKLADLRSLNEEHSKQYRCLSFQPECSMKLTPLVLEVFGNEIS
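VDR–SRC2-3 interaction, FP format. Cmpds 23 nl via pintool, brief spin, 2 h ambient incubation.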
Starred values were filed as active, the others as inactive; ? = inconclusive; & = joins results of further samples. % is set by controls: 0 for no effect and ±100 for the full control effect; potency is the fitted concentration of half-maximal effect. Only part of the results is shown; count on the stated rates, not on these rows.

SMILES	VDR inh
O=C(CC(Nc1cccc(Cl)c1Cl)C(=O)O)c1ccccc1 (configuration not stated)	?
C/C(=C/c1ccccc1)C(=O)N1CCC(C)CC1	-12%
CC1CCC2(CC1)NC(=O)N(CC(=O)N1CCc3ccccc3C1)C2=O (configuration not stated)	-25%
O=C(Nc1ncc2c(n1)-c1ccccc1CC2)c1ccc(Cl)cc1	-3%
O=C(/C=C/c1ccccc1Cl)Nn1cnc2ccccc2c1=O	0%
CCCN(CCC)C(=O)c1nn(C)c2c1CSc1ccc(C)cc1-2	2%
CC(C)(C)C1CCc2c(sc(NC(=O)c3ccco3)c2C(=O)Nc2ccccc2Cl)C1 (configuration not stated)	-7%
COc1ccc(CC(NC(=O)c2ccccc2)C(=O)NCC(=O)O)cc1 (configuration not stated)	-17%
CC(=O)Nc1ccc(C(=O)Nc2ccc(S(=O)(=O)N3CCCC3)cc2)cc1	-5%
Cc1ccc(NC(=O)Nc2nc3ccccc3s2)cc1NC(=O)Nc1nc2ccccc2s1	-9%
CC(C)(C)C1CCc2c(sc(NC(=O)c3ccccc3F)c2C(=O)NCc2ccco2)C1 (configuration not stated)	-22%
Cc1ccc([N+](=O)[O-])cc1N(CC(=O)N1CCCCC1)S(C)(=O)=O	-10%
COc1ccccc1Nc1cc(C)nc2nc(-c3ccccc3)nn12	1%
COc1ccc(OC)c(NC(=O)c2cn3c4c(ccc(Cl)c4c2=O)OC(C)C3)c1 (configuration not stated)	11%
O=[N+]([O-])c1cnccc1Nc1ccc(F)cc1	11%
Cc1ccc(NC(=O)Cn2nc(C)c([N+](=O)[O-])c2C)cc1Cl	-5%
CCOc1ccccc1/C=C/c1onc(C)c1S(=O)(=O)N1CCC(C(=O)N(CC)CC)CC1	1%&1%
CCOc1ccc(OCCC(=O)OCC(=O)Nc2ccc3c(c2)OCO3)cc1	11%
CCOc1ccccc1-n1c(=S)sc2c(=O)n(-c3ccc(C)cc3)c(=S)[nH]c21	?
CN(C)CCNc1oc(COc2ccc(-c3ccccc3)cc2)nc1C#N	7%

Continued; the last 4 above are carried over.
SMILES	VDR inh
CCOc1ccccc1/C=C/c1onc(C)c1S(=O)(=O)N1CCC(C(=O)N(CC)CC)CC1	1%&1%
CCOc1ccc(OCCC(=O)OCC(=O)Nc2ccc3c(c2)OCO3)cc1	11%
CCOc1ccccc1-n1c(=S)sc2c(=O)n(-c3ccc(C)cc3)c(=S)[nH]c21	?
CN(C)CCNc1oc(COc2ccc(-c3ccccc3)cc2)nc1C#N	7%
O=C(CCNC(=O)c1ccccc1Cl)Nc1nc2ccc(F)cc2s1	5%
Cc1c(Cl)cccc1NC(=S)N1CCCN(Cc2ccc(F)cc2)C1	15%
Cc1cccc(NC(=S)NCc2ccccc2Cl)c1C	-16%
CCCCNC(=O)Nc1ccc(C2SCCS2)cc1	1%
NC(=O)C[C@H](N)c1cn([C@@H](CC(N)=O)C(=O)N2CCNCC2)nn1	-16%
COc1ccc2o/c(=N/NC(=O)c3cccs3)c(C(N)=O)cc2c1	-16%
CCOC(=O)c1cncc(C#CCOC(=O)Nc2ccc(OC(F)(F)F)cc2)c1	-11%
COc1ccc(C(=O)Nc2cc(C)on2)c(OC)c1	-2%
O=C(NCCO)/C(=C/c1ccco1)NC(=O)c1ccco1	-15%
O=C(Nc1ccc(F)cc1F)c1cc2ccc3cccnc3c2[nH]1	4%

The list goes on, overlapping the part above by seven compounds.
SMILES	VDR inh
CCCCNC(=O)Nc1ccc(C2SCCS2)cc1	1%
NC(=O)C[C@H](N)c1cn([C@@H](CC(N)=O)C(=O)N2CCNCC2)nn1	-16%
COc1ccc2o/c(=N/NC(=O)c3cccs3)c(C(N)=O)cc2c1	-16%
CCOC(=O)c1cncc(C#CCOC(=O)Nc2ccc(OC(F)(F)F)cc2)c1	-11%
COc1ccc(C(=O)Nc2cc(C)on2)c(OC)c1	-2%
O=C(NCCO)/C(=C/c1ccco1)NC(=O)c1ccco1	-15%
O=C(Nc1ccc(F)cc1F)c1cc2ccc3cccnc3c2[nH]1	4%
O=C(CCc1ccc(S(=O)(=O)N2CCOCC2)cc1)Nc1ccccc1F	-17%
O=C(C[C@@H]1C/C=C/CC[C@H](Cc2ccc(F)cc2)C(=O)O[C@H](c2ccccc2)CNC1=O)NCCO	-10%
O=C(O)c1ccc2c(c1)N(Cc1ccc(F)cc1Cl)C(=O)c1ccccc1S2	-3%
Oc1ccccc1/C=N/NC(=S)NC1CC2CC1C1C=CCC21 (configuration not stated)	2%
Cc1noc(Cn2c(=O)c3cc4c(cc3n(CC(=O)Nc3ccccc3F)c2=O)OCO4)n1	6%
O=C1CCCCC1Nc1ccc([N+](=O)[O-])cc1 (configuration not stated)	8%
O=C(NCCC(=O)N1CCCCC1)c1ccccc1Cl	15%
CC(=O)N1CCc2cc(S(=O)(=O)NCCCN3CCC(C)CC3)ccc21	14%
CCOc1ccc(N2C(=O)C3CCCN3C2=O)cc1 (configuration not stated)	-24%
CC(C)OC(=O)/C(C#N)=C/c1c[nH]c2ccccc12	5%
CN(C)c1ccc(CNS(=O)(=O)c2ccc3c(c2)C(C)(C)C(=O)N3C)cc1	-6%
CCn1c(Cn2nnc(-c3ccccc3)n2)nnc1SCC(=O)Nc1ccc(C(C)=O)cc1	1%
Cc1ccc2c(c1)cc(CN(Cc1cccs1)C(=O)c1ccco1)c1nnnn12	?
O=C(CSCc1ccc(Cl)cc1)N/N=C/c1ccco1	-4%
CCC(C)NC(=O)C1CCCN(S(=O)(=O)c2ccc(-n3cnnn3)cc2)C1 (configuration not stated)	-4%
CCOc1ccc(CNn2nnnc2N)cc1	0%
CCOc1ccc(C(=O)Nc2cccc([N+](=O)[O-])c2)cc1Br	8%
CCc1nnc(NC(=O)CCC(=O)NCc2ccc(C)cc2)s1	-5%
O=C(CCc1nc2ccccc2c(=O)[nH]1)NNC(=O)COc1cccc(F)c1	3%
CC1CCCCN1c1nc(-c2ccc(C(C)(C)C)cc2)nc2ccccc12 (configuration not stated)	-6%
O=C1NC(=S)S/C1=C\c1cccc([N+](=O)[O-])c1	?
O=C(c1ccc(Br)o1)N1CCN(CCc2ccncc2)CC1	-8%
O=C(O)C(Cc1ccccc1)n1c(=S)[nH]c2ccccc2c1=O (configuration not stated)	7%
COc1ccc(C2c3c(oc4cc(C)cc(C)c4c3=O)C(=O)N2Cc2ccco2)cc1OC (configuration not stated)	8%
CC1=CCC(COC(=O)Nc2ccccc2)CC1 (configuration not stated)	10%
C/C(=N/NC(=O)c1ccc(Br)o1)c1ccncc1	-21%
Cc1ccc2c(c1)cc1c(=O)n(CC(=O)N3CCCCC3)nc(C)n12	-20%
Cc1ccccc1C(=O)N1CCc2c([nH]c3ccccc23)C1C(F)(F)F (configuration not stated)	-13%
Cc1cc(N2CCN(C(=O)c3ccco3)CC2)c2ccccc2n1	-8%
O=C1CCCN1c1ccc(S(=O)(=O)Oc2ccc(Cl)cc2)cc1[N+](=O)[O-]	6%
CCCn1nc(C(=O)Nc2nnc(CC)s2)c2ccccc2c1=O	8%
CN1/C(=C\C(=O)c2cccnc2)C(C)(C)c2ccccc21	-16%
Cc1cc(C)c(NC(=O)CSc2nnc(-c3ccncc3)n2Cc2ccco2)c(C)c1	5%
CC(C)c1ccc(NC(=O)C2CSC3(C)CCC(=O)N23)cc1 (configuration not stated)	-10%
CN(CCOc1ccccc1)C(=O)c1ccc(F)c(S(=O)(=O)N2CCOCC2)c1	-10%
CCN(Cc1nc(-c2ccccc2)no1)C(=O)c1ccco1	5%
CC(C)OCCCN1CN(S(=O)(=O)c2ccccc2)c2nc3ccccc3nc21	8%
CCn1c(=N)n(CC(O)COc2ccccc2)c2ccccc21 (configuration not stated)	7%
CC(=O)c1sc2nc(CSc3nnnn3-c3ccccc3)[nH]c(=O)c2c1C	-2%
Cc1cc(N2CCCC2=O)ccc1S(=O)(=O)NCCOc1ccccc1	2%
COc1ccc(/C=C(/NC(=O)c2ccccc2)C(=O)NCCN2CCOCC2)cc1OC	-8%
COc1ccc(C2C(C(=O)/C=C/c3ccco3)=C(O)C(=O)N2CCN2CCOCC2)cc1OC (configuration not stated)	12%
CC(Nc1n[nH]c(=O)[nH]c1=O)C(=O)N/N=C/c1ccccc1 (configuration not stated)	-14%
CC(=O)OCC(NC(=O)C(Cc1ccccc1)NC(=O)OC(C)(C)C)C1OC(n2ccc(=O)[nH]c2=O)C(OC(C)=O)C1OC(C)=O (configuration not stated)	?
CN(C(=O)c1cc2nc(-c3ccco3)cc(C(F)(F)F)n2n1)C1CCCCC1	-8%
O=C(NCc1ccccc1Cl)/C(=C\c1cccnc1)NC(=O)c1ccccc1	5%
O=C(NCC(c1ccco1)N1CCc2ccccc21)c1ccccc1 (configuration not stated)	7%
CCNC(=O)N(C)C[C@H]1N[C@@](C)(C(=O)OC)[C@H]2C(=O)N(C)C(=O)[C@@H]12	-14%
CC(C)(C)C(=O)OCC1OC(n2cnc(C(N)=O)n2)C(O)C1O (configuration not stated)	20%
CCO[C@@H]1OC(C(N)=O)=C[C@H](c2ccc3c(c2)OCO3)[C@H]1CCCO	-1%

(next part)
SMILES	VDR inh
Cc1ccccc1NS(=O)(=O)c1ccc2[nH]cc(C(=O)N3CCCC3)c(=O)c2c1	1%
COc1ccc(Cl)cc1NC(=O)CSc1nccn1Cc1ccco1	3%
COc1ccc(NC(=O)CN2C(=O)NC3(CCCCCC3)C2=O)cc1Cl	-22%
O=C(Nc1ccc(S(=O)(=O)Nc2ncccn2)cc1)c1cccc(S(=O)(=O)N2CCOCC2)c1	-29%
CCC(=O)N1c2ccc(S(=O)(=O)CCC(=O)NCc3ccc4c(c3)OCO4)cc2CC1C (configuration not stated)	?
S=C(NC1CCCCC1)N1CCOCC1	12%
COC(=O)CCC(NC(=O)c1cc(-c2ccc3c(c2)OCCO3)oc1C)C(=O)OC (configuration not stated)	-13%
COCC(=O)N(Cc1cc2ccc(C)cc2[nH]c1=O)c1cccc(C)c1	-20%
CC(=O)Nc1ccc(S(=O)(=O)NNC(=O)c2cccc(Cl)c2)cc1	-6%
C/C=C(\C)CN1CCC(n2nccc2NC(=O)c2ccc3c(c2)OCO3)CC1	-14%

Another view of some results above.
molecule,VDR inh
O=C(Nc1ccc(S(=O)(=O)Nc2ncccn2)cc1)c1cccc(S(=O)(=O)N2CCOCC2)c1,-29%
CCC(=O)N1c2ccc(S(=O)(=O)CCC(=O)NCc3ccc4c(c3)OCO4)cc2CC1C (configuration not stated),?

The list goes on.
SMILES	VDR inh
CCCCC(O)(c1ccc(CC)cc1)C(CN1CCOCC1)c1ccccc1 (configuration not stated)	-3%
O=C(NCc1ccc(Cl)cc1)N1CCN(Cc2ccccc2)CC1	-21%
CCOC(=O)C1=C(C)N(c2ccc(OCC)cc2)C(=O)/C1=C\c1ccco1	-18%
CC(=O)Nc1ccc(NC(=O)c2cnn(-c3ccccc3)c2C2CCN(C(=O)OC(C)(C)C)CC2)cc1	-1%
N#CCCN(C(=O)COC(=O)c1cccc(S(=O)(=O)N2CCCC2)c1)c1ccc(F)cc1	-4%
NC(=O)Cn1nc([N+](=O)[O-])nc1Oc1ccc(Br)cc1	-20%
CCOc1ccc2nc(C(C)O)[nH]c2c1 (configuration not stated)	3%
C=CCNC(=O)CN(c1ccc(F)cc1)S(=O)(=O)c1ccc(OC)cc1	-17%
CCOc1ccc(N(CC(=O)NCc2ccc(Cl)cc2)S(=O)(=O)c2c(C)noc2C)cc1	-15%&-21%
CCOC(=O)Cc1c(C)nc2c(-c3cccc(Br)c3)c[nH]n2c1=O	13%
Cc1cccc2c(N=NC(=O)c3ccc(NS(=O)(=O)c4cccs4)cc3)c(O)[nH]c12	9%
CN(C)c1ccc(NC(=O)C2CCCN(S(=O)(=O)c3ccccc3)C2)cc1 (configuration not stated)	-10%
Cn1ncc2c(Nc3ccccc3Cl)nc(Cl)nc21	10%
CSc1ccc(C(=O)C2CCCN(C(=O)c3ccsc3)C2)cc1 (configuration not stated)	-1%
CCC(=O)N1CCN(c2ccc(NC(=O)c3ccc(Br)o3)cc2)CC1	-21%
Cc1nc2ccccc2[nH]c1=O	-4%
Cc1[nH]nc(SCC(=O)N2CCOCC2)c1[N+](=O)[O-]	6%
Nc1nc2ccccc2n1CCOc1ccc(Br)cc1	-11%
CCCN(C1CCS(=O)(=O)C1)S(=O)(=O)c1ccc(F)cc1 (configuration not stated)	-3%
CSc1nnc(CNS(=O)(=O)c2ccc(Br)cc2)n1C	2%

Pulled by structure from the list above:
SMILES	VDR inh
Cc1ccccc1C(=O)N1CCc2c([nH]c3ccccc23)C1C(F)(F)F (configuration not stated)	-13%
CCc1nnc(NC(=O)CCC(=O)NCc2ccc(C)cc2)s1	-5%

Carrying on.
SMILES	VDR inh
O=C(O)CCc1ccc(-c2cccs2)n1CCC(=O)O	9%
Cc1c(C)c2c(OCC(=O)N3CCC(O)CC3)cc3c(c2oc1=O)CCC(C)(C)O3	-6%
CCNC(=O)NC(=O)C(C)OC(=O)CNS(=O)(=O)c1c(Cl)cc(Br)cc1Cl (configuration not stated)	?
Nc1ccccc1Oc1ncc(C(F)(F)F)cc1Cl	-7%
Cc1ccc(CNC(=O)c2ccc3c(=O)n(CCCN4CCCC4=O)c(=S)[nH]c3c2)cc1	14%
Cc1cccc(N2C(=O)SC(N(CC(=O)O)c3cccc(C)c3)C2=O)c1 (configuration not stated)	0%
CC(Sc1ccccc1)C(=O)NN=C1CCCCCC1 (configuration not stated)	-21%
Cc1cc(C)n(CCN(C)C(=O)c2cc(COc3c(F)cccc3F)on2)n1	-12%
O=C(Cc1noc2ccccc12)Nc1ccccn1	2%
NC(=O)CN1CCN(c2ccccc2F)CC1	1%
O=c1[nH]c(=O)n(C2OC(CO)C(O)C2O)cc1F (configuration not stated)	-13%
COc1ccc(OCc2ccc(C(=O)N3CCOCC3)cc2)cc1	21%
CNC(=O)COC(=O)/C=C/c1cccs1	-5%
COc1cc(C=NNC(=O)c2ccccc2-n2cccc2)ccc1O	-9%
